Polio RdRp inh: poliovirus RdRp elongation inhibitors, primary screen, biochemical, fluorescence polarization, total intensity. Genome polyprotein (Poliovirus type 1 (strain Mahoney)), P03300. poliovirus polymerase elongation; active compounds read low. % elongation, % (compound at 16.7 µg/mL). hit rate 0.66% among 150,000; in the data active means % elongation below about 90%; further: some results filed as inactive read as strong as hits
Target sequence (P03300 1749-2209 limits assumed): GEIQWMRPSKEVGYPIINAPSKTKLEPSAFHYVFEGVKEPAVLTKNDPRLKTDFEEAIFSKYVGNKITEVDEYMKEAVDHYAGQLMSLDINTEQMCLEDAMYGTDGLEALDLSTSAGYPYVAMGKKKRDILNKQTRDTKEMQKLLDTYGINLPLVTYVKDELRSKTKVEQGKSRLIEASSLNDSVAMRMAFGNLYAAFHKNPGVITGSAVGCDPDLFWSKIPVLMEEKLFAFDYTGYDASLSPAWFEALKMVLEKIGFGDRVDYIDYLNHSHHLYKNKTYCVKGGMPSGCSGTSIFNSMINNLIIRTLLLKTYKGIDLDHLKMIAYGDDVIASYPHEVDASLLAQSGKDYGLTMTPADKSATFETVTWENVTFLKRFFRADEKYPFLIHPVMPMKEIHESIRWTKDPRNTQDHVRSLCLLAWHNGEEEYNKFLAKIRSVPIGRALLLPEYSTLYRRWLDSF
Polio RdRp inh intensity: second read-out of Polio RdRp inh, no call of its own (marks repeat the call); % elongation; measured here: total intensity read-out; formula for this scale not given here;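 total fluorescence in place of polarization; lower means less elongation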
* hit, by the source's call.

Molecule | Polio RdRp inh | Polio RdRp inh intensity
O=C(NC1CCCCCC1)c1ccc2c(c1)sc1nc(-c3ccc(F)cc3)cn12 | 96 | 90
Cc1cccc(N(C)C(=O)CCS(=O)(=O)c2ccc3c(c2)oc(=O)n3C)c1 | 106 | 111
Cc1csc2nc(COc3ccc(NC(=O)COc4ccccc4F)cc3)cc(=O)n12 | 101 | 116
O=C(c1cc2ccc3cccnc3c2[nH]1)N1CCN(c2ccccc2)CC1 | 109 | 114
Cc1ccccc1Nc1c(-c2ccc(Br)o2)nc2ccc(Cl)cn12 | 104 | 107
COc1ccc(Nc2nnc(-c3ccc(C)c(S(N)(=O)=O)c3)c3ccccc23)cc1 | 103 | 105
Cc1cccc(Cn2cc(C(=O)Nc3ccc(S(N)(=O)=O)cc3)ccc2=O)c1 | 109 | 117
COc1ccc(-c2oc3ncn4nc(-c5ccccc5Cl)nc4c3c2-c2ccc(OC)cc2)cc1 | 103 | 105

Filtered by structure: the entries above with sulfur (5)
Molecule | Polio RdRp inh | Polio RdRp inh intensity
O=C(NC1CCCCCC1)c1ccc2c(c1)sc1nc(-c3ccc(F)cc3)cn12 | 96 | 90
Cc1cccc(N(C)C(=O)CCS(=O)(=O)c2ccc3c(c2)oc(=O)n3C)c1 | 106 | 111
Cc1csc2nc(COc3ccc(NC(=O)COc4ccccc4F)cc3)cc(=O)n12 | 101 | 116
COc1ccc(Nc2nnc(-c3ccc(C)c(S(N)(=O)=O)c3)c3ccccc23)cc1 | 103 | 105
Cc1cccc(Cn2cc(C(=O)Nc3ccc(S(N)(=O)=O)cc3)ccc2=O)c1 | 109 | 117

(next part)
Molecule | Polio RdRp inh | Polio RdRp inh intensity
CCC1CCCCN1CCCNC(=O)CN1C(=O)CSc2ccc(S(=O)(=O)N3CCOCC3)cc21 (stereo not given) | 108 | 111
Cc1cccc(N2CCN(C(=O)c3oc(=O)c4ccccc4c3-c3ccccc3)CC2C)c1 (stereo not given) | 108 | 109
CCOc1ccccc1NC(=O)C(CC(C)C)NS(=O)(=O)c1ccc2c(c1)oc(=O)n2C (stereo not given) | 108 | 106
COc1ccccc1NC(=O)c1c(C)cc(C)nc1SCC(=O)c1ccc(Cl)cc1 | 104 | 99
COc1cccc2c1Oc1nc(-c3ccccc3)nc(SCC(=O)N3CCCCC3)c1C2 | 104 | 105
CCOc1ccc(CN(CCc2ccc3c(c2)OCO3)Cc2ccc(CC)cc2)cc1 | 103 | 107
COc1cccc(-n2nnc(-c3nc(-c4ccccc4F)no3)c2C)c1 | 102 | 101
COc1cccc(CNC(=O)c2cnc3sc(N4CCCC4)nn3c2=O)c1OC | 105 | 106
CC1=C(C(=O)OC2CCCC2)C(c2ccc(F)cc2F)CC(=O)N1 (stereo not given) | 108 | 108
Cc1cccc(C(=O)N(Cc2ccco2)Cc2ccccc2F)c1 | 98 | 91
Cc1ccc(N2CC(c3nnc(Cc4ccc(F)cc4Cl)o3)CC2=O)cc1 (stereo not given) | 97 | 101
CCOc1ccccc1NC(=O)N(C)CCc1c(C)nn(CC)c1C | 102 | 98
CCOC(=O)c1c(C)[nH]c(C)c1S(=O)(=O)N1CCC(C(=O)Nc2cc(Cl)ccc2OC)CC1 | 104 | 107
CCC(=O)C1=C(c2ccc(Cl)cc2)N(C(=O)CC)n2c(C)nnc2S1 | 100 | 96
Cc1ccc2c(c1)N(C(=O)N1CCC(C(=O)NCc3ccccc3F)CC1)CC(C)O2 (stereo not given) | 111 | 107
CCc1ccccc1NC(=O)C1COc2ccccc2C1 (stereo not given) | 111 | 114
Cc1cccc(N2CCN(C(=O)CN3C(=O)COc4ccc(S(=O)(=O)N5CCCC5)cc43)CC2)c1C | 107 | 112
CCOC(=O)c1noc2nc(C)n(CC(=O)Nc3cc(Cl)ccc3OC)c(=O)c12 | 104 | 100
O=C(CCc1nc2cccnc2n1-c1ccccc1)Nc1ccc(Cl)c(Cl)c1 | 104 | 108
Cc1ccc(NS(=O)(=O)c2c(C)nc3sccn3c2=O)c(Cl)c1 | 109 | 105
CCn1cc(C(=O)N2CCN(c3cc(Cl)ccc3C)CC2)c(=O)c2cc(S(=O)(=O)N3CCCC3)ccc21 | 104 | 106
Cc1cccc(-c2nc3c4ccccc4nc(N4CCN(c5ccc(F)cc5)CC4)n3n2)c1 | 102 | 106
COc1ccc(N2CCN(CCCNC(=O)c3ccc4nc(CCc5ccccc5)oc4c3)CC2)cc1 | 117 | 105
COc1ccccc1N1CCN(S(=O)(=O)c2c(C)sc3ncn(CC(=O)Nc4ccc(C(F)(F)F)cc4)c(=O)c23)CC1 | 109 | 109

An excerpt of these results, field by field:
Cc1cccc(-c2nc3c4ccccc4nc(N4CCN(c5ccc(F)cc5)CC4)n3n2)c1
- Polio RdRp inh: 102
- Polio RdRp inh intensity: 106

CCn1cc(C(=O)N2CCN(c3cc(Cl)ccc3C)CC2)c(=O)c2cc(S(=O)(=O)N3CCCC3)ccc21
- Polio RdRp inh: 104
- Polio RdRp inh intensity: 106

O=C(CCc1nc2cccnc2n1-c1ccccc1)Nc1ccc(Cl)c(Cl)c1
- Polio RdRp inh: 104
- Polio RdRp inh intensity: 108

COc1ccccc1N1CCN(S(=O)(=O)c2c(C)sc3ncn(CC(=O)Nc4ccc(C(F)(F)F)cc4)c(=O)c23)CC1
- Polio RdRp inh: 109
- Polio RdRp inh intensity: 109

(cont.)
Molecule | Polio RdRp inh | Polio RdRp inh intensity
CCOc1ccc(OCC)c(Nc2nc3ccc(Cl)cc3n3cnnc23)c1 | 109 | 114
Cc1ccc(CCNc2nc3c(S(=O)(=O)c4ccccc4)nnn3c3ccsc23)cc1 | 104 | 100
O=C(NC1CC(=O)N(c2ccc(Cl)cc2)C1)c1ccc2c(c1)OCO2 (stereo not given) | 108 | 104
Cc1ccsc1CCN1C(=O)N(c2ccccc2)C(=O)C1CC(=O)Nc1ccc(Cl)cc1 (stereo not given) | 100 | 102
Cn1c(=O)c2c(nc(CN3CCN(c4ccccc4F)CC3)n2Cc2ccc(F)cc2)n(C)c1=O | 110 | 111
CCOc1ccc(CC(=O)NCC(c2cccs2)S(=O)(=O)c2ccc(F)c(C)c2)cc1 (stereo not given) | 106 | 102
CCc1ccc(CNC(=O)C2CCN(c3nc4ccccc4nc3C(F)(F)F)CC2)cc1 | 100 | 106
O=C(NCCc1ccc(Cl)cc1)c1ccc(Cn2c(=O)c3cccn3c3cccnc32)cc1 | 104 | 103
COc1ccc(-n2c(SCc3nc(-c4ccc(C)cc4)no3)nnc2-c2ccncc2)cc1 | 110 | 107
CCC1CCC(C(=O)NC(C(=O)NCCN(CC(C)C)CC(C)C)C(C)C)CC1 (stereo not given) | 107 | 109
CCN(C(=O)C1CCC(CNS(=O)(=O)c2cccc3nsnc23)CC1)c1ccc(C)c(C)c1 (stereo not given) | 108 | 104
COc1ccccc1Nc1ncnc2c1nc1n2CCCCC1 | 111 | 101
COc1ccc(CC(=O)NC2CC(=O)N(c3ccc(C)c(C)c3)C2)cc1OC (stereo not given) | 104 | 107
CCC(C)Sc1oc(-c2ccco2)nc1S(=O)(=O)c1ccc(C)cc1 (stereo not given) | 114 | 110
O=c1cc(-c2ccccc2)nc2cc(-c3ccc(F)cc3)[nH]n12 | 101 | 97
COc1ccccc1CNC(=O)c1ccc2nc(N3CCCCC3)sc2c1 | 107 | 103
CSC1=NC2(CCN(C(=O)NC3CCCCC3)CC2)N=C1c1ccc(C)c(C)c1 | 103 | 100
COc1cccc(CSc2nc3cc(OC)c(OC)cc3c3nc(CCn4nc(C)cc4C)nn23)c1 | 105 | 105
Cc1ccccc1NC(=O)c1ccc(F)c(S(=O)(=O)N2CCN(c3ccccc3F)CC2)c1 | 100 | 105
Cc1ccc(OCC(=O)Nc2cccc(-c3nc4ccccc4s3)c2)cc1 | 95 | 94
CCOc1ccc(NC(=O)N2CCC(CN3CCCCCC3)CC2)cc1 | 105 | 94
COc1ccc(C(=O)c2cn(Cc3ccc(C)cc3)c3cc4c(cc3c2=O)OCO4)cc1 | 112 | 107
CCc1ccccc1NC(=O)Cn1c(=O)nc(-c2ccccc2)c2ccccc21 | 102 | 96
CC(C)c1cnc2c(c1SCC(=O)N1CCCCC1)c(=O)n(C)c(=O)n2C | 113 | 105
CC(C)c1ccc(NC(=O)CN2C(=O)CSc3ccc(S(=O)(=O)N4CCCC4)cc32)cc1 | 121 | 118
CCOc1ccc(-n2c(=O)c3c(C)c(C)sc3n(CC(=O)N3CCC(C)CC3)c2=O)cc1 | 108 | 111
COc1ccc(NC(=O)CSc2nccn2Cc2ccco2)c(OC)c1 | 102 | 99
O=c1c2ccccc2n2c(-c3ccccc3F)nnc2n1CCc1ccccc1 | 110 | 114
Cc1nc(-c2ccc(Cl)cc2)sc1CCNC(=O)c1cccs1 | 105 | 98
Cc1cc2c(cc1S(=O)(=O)NCc1ccccc1Cl)OCC(=O)N2 | 107 | 108
CCCN1C(=O)c2[nH]nc(-c3ccccc3O)c2C1c1ccc(OCc2ccccc2)c(OCC)c1 (stereo not given) | 111 | 115
COc1ccc(C2C(=O)N(C3CCCCC3)CC(=O)N2Cc2ccccc2Cl)cc1OC (stereo not given) | 99 | 95
COc1ccc(Nc2nc(Nc3ccc(OC)cc3OC)nc(N3CCOCC3)n2)c(OC)c1 | 105 | 108
COc1ccc(-c2cn3c(n2)sc2cc(C(=O)NC4CCCc5ccccc54)ccc23)cc1 (stereo not given) | 102 | 107
COc1cc(C(CC(=O)NCc2ccc(F)cc2)N2Cc3ccccc3C2=O)cc(OC)c1OC (stereo not given) | 101 | 105
CCN(c1ccccc1)C(CNS(=O)(=O)c1ccccc1)c1ccccc1 (stereo not given) | 105 | 103
Cc1ccc(-n2c(=O)c3c(cnn3C)n(Cc3ccc(Cl)cc3)c2=O)cc1 | 108 | 102
CCOC(=O)c1c(-c2ccccc2)csc1NC(=O)c1cc(-c2ccc(Cl)cc2)on1 | 95 | 96
Cc1cc2nn(-c3ccccc3)nc2cc1NC(=O)c1cccc2c(Cl)cccc12 | 104 | 106
CCOC(=O)C1(C)C=C(Nc2cccc(C(=O)O)c2)C(=O)N1c1cccc(C(=O)O)c1 (stereo not given) | 112 | 112

Whole records from above. Order of screens: Polio RdRp inh | Polio RdRp inh intensity
Cc1ccc(-n2c(=O)c3c(cnn3C)n(Cc3ccc(Cl)cc3)c2=O)cc1 in the list: 108 | 102
COc1cc(C(CC(=O)NCc2ccc(F)cc2)N2Cc3ccccc3C2=O)cc(OC)c1OC (stereo not given) in the list: 101 | 105
COc1ccc(Nc2nc(Nc3ccc(OC)cc3OC)nc(N3CCOCC3)n2)c(OC)c1 in the list: 105 | 108

New compounds follow
Molecule | Polio RdRp inh | Polio RdRp inh intensity
CCOC(=O)N1CCc2c(sc3c2c(=O)n(-c2ccc(F)cc2)c(=O)n3CC(=O)c2ccc(Cl)cc2)C1 | 104 | 106
COc1ccc(CNC(=O)Cn2c(=O)nc(-c3ccccc3)c3cc(Cl)ccc32)cc1OC | 106 | 94
CNC(=O)C1CCC(Cn2c(=O)c3sccc3n(CC(=O)NCc3cccc(OC)c3)c2=O)CC1 (stereo not given) | 103 | 107
CCOC(=O)c1cnc(N2CCN(c3ccc(OC)cc3)CC2)c2ccccc12 | 106 | 113
Cc1ccc(NC(=O)CN2C(=O)CCSc3ccccc32)c(C)c1 | 110 | 110
O=C(CSc1nccn1Cc1ccco1)Nc1cccc(F)c1 | 105 | 103
COc1ccc(-c2nnc(SCC(=O)Nc3cc(OC)ccc3OC)nc2-c2ccc(OC)cc2)cc1 | 106 | 108
O=C(NCc1nc2ccccc2[nH]1)c1c(F)cccc1F | 101 | 104
Cc1nn2c(C)c(C(=O)NCc3ccc(OC(C)C)cc3)cnc2c1-c1ccc(F)cc1 | 101 | 105
Cc1ccc(OCC(=O)Nc2c(C(=O)c3ccccc3)oc3ccccc23)cc1C | 110 | 112
CC(C)Sc1nc2sc3c(c2c(=O)n1Cc1ccccc1)CCCC3 | 103 | 106
O=C(NCc1ccc2c(c1)OCO2)c1ccc2c(c1)N(Cc1ccccc1F)C(=O)c1ccccc1S2 | 109 | 118
CCOc1ccccc1C(=O)NCC(c1ccc(N(C)C)cc1)N1CCc2ccccc21 (stereo not given) | 108 | 114
CCC(C)[C@H](N)c1nnc(SCc2ccc(Cl)c(Cl)c2)o1 (stereo not given in full) | 97 | 101
CCOC(=O)c1cccc(Nc2cc(-c3ccccc3)ncn2)c1 | 102 | 97
CCn1c(=O)c2cc(C(=O)NCCc3cc(OC)ccc3OC)sc2c2ccccc21 | 100 | 104
CC(C)(C)OC(=O)N1CCC(c2c(C(=O)NCCN3CCCC3)cnn2-c2ccc(Cl)cc2)CC1 | 109 | 113
CN(Cc1ccco1)C(=O)c1ccc2c(c1)N(Cc1ccccc1F)C(=O)c1ccccc1S2 | 102 | 94
O=C(Nc1cc(-c2nc3cc(Cl)ccc3o2)ccc1Cl)c1cccs1 | 106 | 123
Cc1nn(CCCC(=O)Nc2ccccc2C(F)(F)F)c(=O)c2c1sc1ccccc12 | 114 | 114
NS(=O)(=O)c1ccc(NC(=O)c2cc(-c3cccs3)nc3ccccc23)cc1 | 103 | 105
O=S(=O)(NCC(c1ccco1)N1CCOCC1)c1ccc(F)cc1 (stereo not given) | 103 | 110
Cc1ccc(-n2nc(C)c3c(C(F)(F)F)cc(-c4cccnc4)nc32)cc1Cl | 107 | 110
COc1ccc(CNCCCSc2nnnn2C)c(OC)c1 | 105 | 106
COc1ccc(CCCc2nnc(SCC(=O)Nc3ccc(C)cc3)o2)cc1C | 103 | 106

High-throughput results (PubChem BioAssay)

A portion of the library; count on the stated rates, not on these rows.
